A647 fluor = compound autofluorescence in A647 spectral region; Compound fluorescence, A647 channel (570/671 nm), Tris buffer; max dye-equivalent concentration, M; 59,000 tested, under 10 active; AID 592; active means above 1 µM dye equivalent; inconclusive means 0.1 to 1 µM; inactive means 0.1 µM or less;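 also: values scaled relative to a standard on each plate; highest value over a series up to 38 µM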
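Fluorescence read (570 nm ex, 671 nm em) after 15 min RT incubation of compounds in 100 mM Tris buffer, pH 8.0; values expressed as dye-equivalent concentration against a six-point A647 standard series on each plate.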
A488 fluor = A488 region autofluorescence; 59,000 compounds, 0.1% hits; compound autofluorescence, A488 spectral region, dye equivalency; stronger effect = higher value; max dye equivalency, M; active = above 10 nM dye equivalent; inconclusive = 1 to 10 nM; inactive = 1 nM or less; about half of its hits are not listed in these tables;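 also: highest value over a series up to 38 µM; compound alone in buffer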
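Read-out: relative fluorescence at 480/540 nm, expressed as Alexa 488 dye-equivalent concentration from a six-point A488 standard included per plate. Conditions: 100 mM Tris, pH 8.0; 15 min incubation, room temperature.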
AID923 = qHTS Assay for Allosteric/Competitive Inhibitors of Caspase-1: Spectroscopic Profiling in AFC Spectral Region | compound fluorescence, AFC spectral region (405/520 nm); almost no hit is shown here | Potency, µM (highest dose often 57.5 µM), inactives show at the highest dose fluorescence increase, usual class: activators | 75,000 compounds, 1.1% hits | AID 923, 2007; active = well fitted activation curve with a large enough effect; inconclusive = small, poorly fitted or top-dose-only effect;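 also: potency is read from the fitted curve at half-maximal effect; 0% is about no effect; scaled to a free AFC standard on each plate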
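Titrations up to 57 uM read every 20 sec for 3 min (405/520 nm) with 50 nM caspase 1 and 5 uM Ac-WEHD-AFC, pH 7.5 HEPES buffer. Fluorescence-vs-time intercept gave baseline, scaled against on-plate AFC standard.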
Resorufin autofl = resorufin region autofluorescence | Compound fluorescence, resorufin region 547/598 nm, buffer; stronger effect = higher value | max dye-equivalent concentration, M | 59,000 compounds, 0.04% hits | AID 588; active = above 10 nM dye equivalent; inconclusive = 1 to 10 nM; inactive = 1 nM or less; a few of its hits are not listed in these tables; also: highest value over a series up to 38 µM
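Intrinsic fluorescence profiled in the resorufin window (ex 547 nm, em 598 nm) after 15 min at room temperature in pH 8.0 Tris buffer (100 mM); responses normalized against a six-point resorufin standard series as dye-equivalent concentration.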
TSHR ag = TSH receptor (human) agonism | AID 926 | 73,000 compounds, 0.48% hits | Potency, µM (series often up to 57.1 µM), without a hit: top-dose activation, hits mostly activators | HEK293-CNG-TSHR cells (CNG channel as cAMP sensor), membrane potential dye, cAMP | P16473; active = well fitted activation curve of enough size with the parental cells flat; inconclusive = any curve in the parental cells; inactive = parental cells flat and receptor cells flat or falling; also: potency is read from the fitted curve at half-maximal effect; % of control where 0% means no effect; weak receptor curves with flat parental cells got no call and are not listed
Target sequence (P16473 whole entry, looked up): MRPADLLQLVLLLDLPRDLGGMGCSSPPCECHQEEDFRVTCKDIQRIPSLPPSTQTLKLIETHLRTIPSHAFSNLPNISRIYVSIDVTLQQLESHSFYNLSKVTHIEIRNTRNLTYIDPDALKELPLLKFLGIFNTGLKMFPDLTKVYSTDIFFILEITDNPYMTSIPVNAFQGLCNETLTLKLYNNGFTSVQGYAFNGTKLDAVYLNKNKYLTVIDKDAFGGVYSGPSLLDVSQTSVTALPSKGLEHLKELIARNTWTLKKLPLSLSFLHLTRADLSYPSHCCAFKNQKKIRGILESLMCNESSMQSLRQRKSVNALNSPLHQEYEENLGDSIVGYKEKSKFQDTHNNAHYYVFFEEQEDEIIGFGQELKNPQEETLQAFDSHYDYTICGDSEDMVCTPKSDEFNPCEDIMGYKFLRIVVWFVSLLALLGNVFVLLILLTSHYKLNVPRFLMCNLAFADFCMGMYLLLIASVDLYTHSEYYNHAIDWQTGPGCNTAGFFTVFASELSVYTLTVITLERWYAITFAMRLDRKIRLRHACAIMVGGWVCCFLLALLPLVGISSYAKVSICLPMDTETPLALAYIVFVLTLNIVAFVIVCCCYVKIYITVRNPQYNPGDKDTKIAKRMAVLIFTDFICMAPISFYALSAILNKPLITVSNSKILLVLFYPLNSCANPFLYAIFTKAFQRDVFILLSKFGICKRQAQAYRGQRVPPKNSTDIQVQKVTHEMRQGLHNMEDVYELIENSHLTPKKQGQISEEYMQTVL
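cAMP rise detected as CNG-channel membrane depolarization by fluorescent dye (emission 590 nm), 30 min after compound, following 60 min dye loading containing 100 uM RO 20-1724 at room temperature. Cells: TSHR/CNG HEK 293, with parental CNG HEK 293 as control.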
Starred values were filed as active, the others as inactive; i = inactive; ? = inconclusive; · = no result given; [ ] = dose if it differs, or a comment. Not all compounds are listed, so the mix of outcomes need not match the whole.

SMILES | A647 fluor | A488 fluor | AID923 | Resorufin autofl | TSHR ag
Oc1cc2c(cc1O)CN(C(=S)NCCc1ccc(Cl)cc1)CCC2 | 1e-09 | i | -4.0% | i | ?
COc1cccc(NC(=O)C2CC(=O)n3cnnc3S2)c1 (centres undefined) | 1e-08 | i | · | i | ·
COc1cc(CN2CCC(C(=O)NC3CCCC3)CC2)cc(OC)c1O | 3.4e-08 | i | 0.1% | i | 4%
CCOC(=O)C1CCCN(c2nc(C)nc3c2oc2ccccc23)C1 (centres undefined) | 3e-08 | i | 0.1% | i | 24%
COc1ccc(C2=Nn3c(nnc3-c3ccccn3)SC2)cc1OC | 2.6e-08 | i | · | i | ·
Cc1ccccc1-n1c(C)nc2ccccc21 | · | · | -2.9% | · | 25µM*
Cn1c2c(c(=O)n(C)c1=O)C(NC(=O)c1ccco1)(C(F)(F)F)C(=O)N2 (centres undefined) | 1e-09 | i | 0.9% | i | 1%
NC(=O)CC1(CC(=O)O)CCCCC1 | 1e-09 | i | -0.9% | i | 0%
COC(=O)C/C=C\[C@H](C)[C@H](CO)NS(=O)(=O)c1ccc(C)cc1 | · | · | 3.1%[11.5 µM] | · | 2%[11.4 µM]
COc1ccc(OC)c(NC(=O)Cn2cccc2)c1 | 3.2e-08 | i | 2.0% | i | 0%[11.4 µM]
COC(=O)Nc1nc2c(s1)CCCC2 | · | · | -1.0% | · | ?
CCCCn1c(SCC(=O)NCc2cccs2)nc2c1c(=O)n(C)c(=O)n2C | 3.5e-08 | i | 0.4% | i | -2%
CNC(=O)[C@@]1(C)C=C[C@@H](Cc2ccccc2)N1C(C)=O | · | · | 0.4% | · | 1%
CCOC(=O)c1ccc(Oc2nc(SC)nc(N(C)C)n2)cc1 | · | · | -0.7% | · | ?
COc1cc(C(=S)N2CCCCC2)ccc1OCC(=O)N1CCCC1 | 1.4e-08 | i | -1.2% | i | -2%
Cc1cnc(CNc2cc(-c3ccccc3C)ncn2)cn1 | 4.9e-09 | i | 1.8% | i | 9%
COC(=O)c1ccc(Oc2c(C)oc3c(CN4CCN(C)CC4)c(O)ccc3c2=O)cc1 | 2.8e-08 | i | 11% | i | -1%
C=CCN1C(=O)C(C)(C)Nc2ccccc21 | 1e-09 | i | -0.1% | i | 6%
COc1cccc2cc(NC(=O)C3CCCCC3)c(=O)oc12 | 1e-09 | i | 1.1% | i | 5%
CC12CC(NC(=O)N1c1cccc(C(=O)N3CCN(c4ccccn4)CC3)c1)c1ccccc1O2 (centres undefined) | 1e-09 | i | 0.1% | i | -3%[11.4 µM]
O=C1OC(N2CCN(c3ccccn3)CC2)c2ccccc21 (centres undefined) | 1e-09 | i | -0.9% | i | -3%
COc1cc(CCC(=O)Nc2cc(Cl)ccc2N2CCN(C)CC2)cc(OC)c1OC | 1.6e-08 | i | -1.6% | i | -10%
CC(C(=O)NCC1(c2ccccc2)CCCC1)N1CCCC1 (centres undefined) | 3.5e-08 | i | 1.0% | i | 6%
O=C1OC(N2CCN(C/C=C/c3ccccc3)CC2)c2ccccc21 (centres undefined) | 4e-08 | i | · | i | ·
CCn1c(=O)cc(N2CCC3(CC2)OCCO3)[nH]c1=O | · | · | 2.2% | · | 4%
COc1ccc(C2C3=C(CC(C)(C)CC3=O)Oc3ncn(CCCn4ccnc4)c(=N)c32)cc1 (centres undefined) | 1e-09 | i | 3.4% | i | -8%
O=C(O)C1[C@H]2C(=O)N(C3CCCC3)C[C@]23C=C[C@H]1O3 (some centres undefined) | 4e-08 | i | -2.2% | i | -1%
Cc1cccc(NC(=O)C(C)Oc2ccccc2C)n1 (centres undefined) | 6.2e-09 | i | 1.5% | i | ?
Cc1ccc(-c2nnn(CC(=O)Nc3ccc4nn(-c5ccccc5)nc4c3)n2)o1 | 1.3e-08 | i | 1.3% | i | 1%
COc1ccc(C2C3=C(CCCC3=O)Nc3nc(SCc4ccccc4)nn32)cc1OC (centres undefined) | 4.7e-08 | i | -2.6% | i | 1%
CC(=O)Nc1ccc(Oc2nc(C)cc(C)n2)cc1 | 7e-09 | i | 0.4% | i | 21%
N=C1C(c2nc3ccccc3[nH]2)=C(O)CN1c1ccccc1 | 5.8e-09 | i | -0.9% | i | 5%
O=c1c2cc3c(=O)n(CC4CCCO4)c(=O)c3cc2c(=O)n1CC1CCCO1 (centres undefined) | 1e-09 | i | 0.8% | i | ?
Cc1nnc2ccc(N3CCC4(CC3)OCCO4)nn12 | 1.7e-09 | i | 0.7% | i | 6%
N#CC1(c2ccccc2)CCCN1C(=O)c1ccco1 (centres undefined) | · | · | -1.0% | · | 19%
O=C(CSc1nc2ccccc2c(=O)[nH]1)Nc1ccc(S(=O)(=O)N2CCCC2)cc1 | 1.2e-08 | i | -1.5% | i | 1%
O=C(Cc1c(O)c2ccccc2[nH]c1=O)NCc1ccccc1F | 6.5e-09 | i | -0.1% | i | 8%
Cn1c(N)c(C(=O)COC(=O)c2ccc3c(c2)OCCO3)c(=O)n(C)c1=O | 6.7e-09 | i | 0.4% | i | 10%
COc1ccc(S(=O)(=O)Nc2ccc(S(=O)(=O)N3CCOCC3)cc2)cc1C | 7e-09 | i | 1.1% | i | -4%
COc1ccc(C(=O)N=c2nc3ccccn3s2)cc1 | 3.1e-08 | i | 0.4% | i | 1%
CN1[C@@H]2CC[C@H]1CC(NC(=O)c1nn(C)c3ccccc13)C2 (some centres undefined) | 4.8e-09 | i | -2.1% | i | ·
CCSc1nc2ccccc2n1CC(=O)N1CCOCC1 | · | · | 0.1% | · | 1%
CCOc1ccc(CNc2ccc3c(c2)nc(C)n3C)cc1 | 1e-09 | i | 2.4% | i | -21%
CC1(c2ccccc2)NC(=O)N(CCOc2ccccc2)C1=O (centres undefined) | 4.2e-09 | i | -0.4% | i | 17%
Cc1cccc(-c2nnc(SCc3cc(=O)[nH]c4ccccc34)n2C)c1 | 2.9e-08 | i | 1.7% | i | -2%
Cc1c(C(=O)OC2CCCCC2)sc2nc[nH]c(=O)c12 | 2.4e-09 | i | 2.0% | i | 10%
Cn1c(=O)c2c(nc(N3CCCCCC3)n2CC(O)COc2ccc(Cl)cc2)n(C)c1=O (centres undefined) | 1.5e-08 | i | 5.5% | i | ?
O=C(c1noc2c1CCc1ccccc1-2)N1CCCc2ccccc21 | 2.8e-08 | i | -0.4% | i | ?
CCOC(=O)c1[nH]c(C)c(C(=O)NCCCOC(C)C)c1C | 1.1e-08 | i | -0.1% | i | ·
COc1ccc(CNc2ncncc2-c2ccoc2)c(OC)c1 | 4.5e-08 | i | -0.6% | i | ?
CCOC(=O)N1CCN(c2ccc(C(=O)c3ccccc3)cc2F)CC1 | · | · | 2.9% | · | ?
Cc1cc(COc2ccccc2OCc2cc(C)no2)on1 | 1e-09 | i | -0.7% | i | 17%
CCSc1ccccc1C(=O)n1nnc2ccccc21 | 6e-09 | i | 0.3% | i | ·
CC(=O)OCc1cc2cccc(C)c2[nH]c1=O | 7e-09 | i | -1.8% | i | -2%
O=C(CCCCn1c(=O)[nH]c2ccccc2c1=O)NCCc1c[nH]c2ccccc12 | · | · | 1.1% | · | -1%
O=C(Cn1nc(C(=O)O)c2ccccc2c1=O)NCCC1=CCCCC1 | 1e-09 | i | -0.2% | i | 13%
COc1ccc(CN2C(=O)CCC2(C)C(=O)NC2CCCC2)c(OC)c1 (centres undefined) | · | · | 2.1% | · | ?
Cn1c(/C(C#N)=C(\O)c2ccc(S(=O)(=O)N3CCCCC3)cc2)nc2ccccc21 | 1.7e-08 | i | 1.6% | i | 19%
CN1CCc2c(sc3c2c(=O)n(-c2ccccc2)c2nnc(SCc4ccccc4F)n32)C1 | 5.4e-09 | i | 1.7% | i | 4%
N[C@@](CC(=O)O)(Cc1ccccc1)C(=O)O | 1e-09 | i | -1.0%[11.5 µM] | i | 8%[11.4 µM]

Other results.
SMILES | A647 fluor | A488 fluor | AID923 | Resorufin autofl | TSHR ag
COC(=O)c1sc(NC(=O)CSc2nnnn2-c2ccc(C)cc2C)nc1C | 5.3e-09 | i | -1.2% | i | ?
Nc1nc(-c2cc(-c3cccc4ccccc34)nc(N)n2)cc(-c2cccc3ccccc23)n1 | 1e-09 | i | 1.1%[11.5 µM] | i | -4%[11.4 µM]
CCSC1(SCC)N=C(N)C2(C#N)C(c3ccccc3)NC(C)=C(C)C12C#N (centres undefined) | 3.3e-08 | i | 1.2% | i | 25µM*
O=C(O)CCC(=O)N1CCC(C(=O)c2cccc(Cl)c2)CC1 | 3.8e-08 | i | -0.7% | i | 8%
O=C1Nc2ccccc2C12Nc1ccccc1-c1nc3ccccc3n12 (centres undefined) | 1.9e-08 | i | -2.8% | i | 17%
O=c1cc(N2CCOCC2)[nH]c(=O)n1-c1ccc(Br)cc1 | · | · | 0.9% | · | 13%
CCC1CCCCN1S(=O)(=O)c1ccc(C(=O)Nc2nnc(-c3cccs3)o2)cc1 (centres undefined) | 4.5e-09 | i | 0.0% | i | 10%
CCOc1ccc(OCc2cccc(C(=O)N3CCOCC3)c2)cc1 | 4.1e-09 | i | -0.3% | i | 6%
COC(=O)C1=C(C)N(c2ccc(S(N)(=O)=O)cc2)C(=O)C1 | · | · | -0.4% | · | 2%
CCOC(=O)c1[nH]c(C)c(C(=O)NCC2CCCO2)c1C (centres undefined) | 1e-09 | i | 2.1% | i | 7%
Cc1c(N=c2c(=O)c3ccccc3c2=O)c(=O)n(-c2ccccc2)n1C | · | · | 1.3% | · | 5%
CCCn1c(=O)c2ccccc2n2c(SCCOc3ccc(C)cc3)nnc12 | 1e-09 | i | -0.7% | i | ?
CCC(CC)n1[nH]c(=O)c2c(C)cc(C)nc21 | 3.6e-09 | i | -1.4% | i | -7%
O=C1c2cccc3cccc(c23)C(=O)N1c1nncs1 | 3.6e-08 | i | 3.6% | i | -5%
COc1ccc(-c2cc(C(=O)Nc3cc(C)n(Cc4ccc(Cl)cc4)n3)no2)cc1OC | 1e-09 | i | -0.9% | i | ·
COc1ccc(C(=O)N2CCC(C(=O)Nc3ccccc3OC)CC2)cc1 | 2.2e-08 | i | 0.3% | i | 1%
CCOC(=O)c1oc2cc(OCC(N)=O)ccc2c(=O)c1-c1ccc(OC)c(OC)c1 | 3.3e-08 | i | -0.3% | i | 28%
O=C(NCCc1ccc(Cl)cc1)C1CCN(S(=O)(=O)N2CCC3(CC2)OCCO3)CC1 | 1e-09 | i | 1.1% | i | -2%
